BasE inh = BasE siderophore enzyme inhibitors, primary screen, biochemical, Acinetobacter baumannii ATCC 17978, fluorescence polarization; purified BasE, fluorescence polarization binding displacement; inhibition, % (no concentration beside the values); 84,000 tested, 0.1% active;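 active = both replicates above 25% with normal brightness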;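 note: 0% = negative plate control signal and 100% = positive plate control signal; stock transfer was 100 nL into about 30 µL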
KSHV LANA nucl = inhibitors of KSHV LANA-nucleosome binding, primary screen, biochemical, fluorescence polarization, FITC-LANA1-23, chicken nucleosomes | FITC-LANA1-23 / chicken nucleosome fluorescence polarization; active compounds read low | z-score (test concentration not listed) | 51,000 tested, 0.3% active;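 active = both repeat wells score below -2 in polarization z-score versus plate sample wells, excluding overly bright wells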;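 note: 100 nL library stock added to about 30 µL; numbers are from one replicate; some results filed as inactive read as strong as hits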
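Assay system: purified chicken nucleosomes with FITC-labelled LANA N-terminal peptide (1-23) / Probe or stimulus: 50 nM FITC-LANA1-23 probe / Compound dosing: pin-transferred compound, 100 nL / Times: compound with peptide–nucleosome mix 10–45 min at room temperature / Technique: fluorescence polarization, 480 nm excitation, 535 nm parallel and perpendicular emission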
Active calls of the source: *; x = not tested or not shown. These rows are one share of the data; rates above refer to the full screens.

SMILES	BasE inh	KSHV LANA nucl
O=S1(=O)CCC(Nc2nc(CN3CCCCC3)nc3sc4c(c23)CCC4)C1 (stereo not given)	2.6	x
Cc1ccc2nc(NC(=O)CSc3cn(C)c4ccccc34)sc2c1	2.7	-0.44
O=S(=O)(c1cccc(-c2nc3ccccc3s2)c1)N1CCOCC1	1.5	-0.72
Cc1cc(C)c2c(n1)sc1c(Sc3nnc(-c4ccncc4)o3)ncnc12	-0.1	x
Cc1ccc(-c2noc(COC(=O)c3ccccc3C(F)(F)F)n2)cc1	1.2	x
Cc1ccc(SCc2cc(=O)[nH]c(Nc3nc(C)c4ccccc4n3)n2)cc1	0.9	x
CC1CN(c2ccccc2OC(=O)Nc2ccc(OC(F)(F)F)cc2)CC(C)O1 (stereo not given)	2.6	x
Nc1cccc(Cl)c1N1CCOCC1	-3.8	1.9
CNCC(O)(c1ccc(Cl)cc1)c1ccc(Cl)cc1	x	-1.6
CCCNC(=O)c1cc(C)nc2c1c(C)nn2-c1ccc(C)cc1	0.0	-0.42
CCC(=O)Nc1ccc(S(=O)(=O)N2CCOCC2)cc1	2.5	0.18
CCCCC/C=C\C/C=C\C/C=C\C/C=C\CCCC(=O)O[C@@H](CO)COCCCCCCCCCCCCCCCC	-0.1	-0.2
COc1cc(CN(CC2CCCO2)C(=O)c2cccs2)cc(OC)c1OC (stereo not given)	-0.9	0.67
CCOC(=O)c1c(CSC(=N)N)n(-c2ccc(OC)cc2)c2cc(Br)c(OC(C)=O)cc12	-17	1.3
O=C(Nc1ccc(N2CCOCC2)cc1N1CCOCC1)c1ncoc1-c1ccccc1F	-1.1	0.87
O=C(NCCC1=CCCCC1)c1ccccc1	-0.5	-0.012
COC(=O)Cn1ncc(N2CCc3ccccc3C2)c(Cl)c1=O	0.4	x
Cc1ccc(S(=O)(=O)C(C#N)=C2N(C)c3ccccc3N2C)cc1	1.6	x
Cc1nc(-c2ccc(Cl)cc2)cc(C(F)(F)F)c1C#N	x	-0.24
CN(C(=O)c1ccco1)c1ccccc1C(=O)NCc1ccccc1	1.2	1.1
Cc1cc(C)cc(NC(=O)N(CCC(=O)O)Cc2ccccc2)c1	0.5	-0.27
O=S(=O)(NCCc1ccccc1)c1cccc(S(=O)(=O)N2CCOCC2)c1	0.9	-1.7
CC(=O)N1CCN(c2ncc(Cl)cc2Cl)CC1	-0.2	x
N#Cc1ccccc1OCC(=O)NC1(C#N)CCCC1	0.8	x
CCCNC(=O)c1ccc2c(c1)N(Cc1ccccc1)C(=O)c1ccccc1S2=O (stereo not given)	-0.2	-0.03
O=C(NCc1ccc(-c2cccs2)cc1)C1=Cc2ccccc2OC1	2.3	x
Cn1/c(=N/N=C/c2ccc(N3CCOCC3)cc2)sc2ccccc21	1.6	x
O=C(O)c1ccc2cc[nH]c2c1	0.8	x
COc1ccc(CCNC(=O)CSc2nc(C)nc3c2c(=O)n(C)c(=O)n3C)cc1OC	1.9	-1.2
COC(=O)C1CNCCS1 (stereo not given)	-1.3	x
CC(=O)Nc1cccnc1NC(C)=O	0.1	0.51
Cc1cc(=O)[nH]c(SCc2nc3ccccc3s2)n1	0.4	x
CC1(C)CC(=O)C2=C(C1)Nc1ccc3ncccc3c1C2c1ccc(O)c(O)c1 (stereo not given)	-3.0	-1.7
Cc1ccc(C2=NN(C(=O)COC(=O)C3CCN(S(=O)(=O)c4cccs4)CC3)C(c3ccco3)C2)cc1 (stereo not given)	1.1	x
COC(=O)c1c(O)c2ccccc2[nH]c1=S	-3.5	2.5
COCCn1cnc2c1c(=O)n(Cc1ccc(Br)cc1)c(=O)n2Cc1ccccc1	1.1	x
Cc1ccc(Nc2nc(N)nc(CN3CCN(S(=O)(=O)c4ccc5c(c4)CCC5)CC3)n2)cc1	-0.3	x
CCOc1ccc(C(=O)NC)c(OCC)c1	-0.7	1.2
C(=C\c1ccccc1)/CSc1nc2ccccc2[nH]1	1.3	x
Cc1csc(SCC(=O)O)n1	2.2	0.12
CCOC(=O)c1cn(CC(=O)NN)nc1C(F)(F)F	1.5	x
COc1ccccc1NS(=O)(=O)c1ccc2oc(SCC(=O)NC(N)=O)nc2c1	2.3	x
CCn1c(=O)cc(SCC(=O)NCc2ccccn2)c2ccccc21	-0.9	-1.3
Cc1nn(-c2ccc(F)cc2)c(Cl)c1/C=N/NC(=O)C1CC1	0.8	x
c1ccc(-c2cn(-c3ccccc3)c3ncnc(NCCCN4CCOCC4)c23)cc1	0.9	-0.89
c1ccc2c(c1)ncn2CCn1cnc2ccccc21	-3.9	0.62
Cc1n[nH]c(C)c1C(C)C(=O)N1CCN(c2ccccn2)CC1 (stereo not given)	-2.0	0.073
CCc1nnc2c(N(C)C3CCCCC3)nc3ccccc3n12	-0.2	x
Cc1ccc(CN(C2CCCC2)S(=O)(=O)c2ccc(S(=O)(=O)N3CCCC(C)C3)cc2)o1 (stereo not given)	-0.8	0.34
O=C1C2ON(c3ccccc3)C(c3ccncc3)C2C(=O)N1c1cccc(C(F)(F)F)c1 (stereo not given)	-1.4	-0.073
CCNc1nc2[nH]c(=O)c3c(c2s1)OC(N)=C(C#N)C3c1ccc(C)cc1 (stereo not given)	-13	2.6
COC(=O)C(C)N1C(=O)S/C(=C/c2cc(C)n(-c3ccc4c(c3)OCO4)c2C)C1=O (stereo not given)	1.3	-0.57
CC(C)(C)OC(=O)Nc1ncnc2c1ncn2C1OC(CO)C2OC(C)(C)OC21 (stereo not given)	0.8	x
OCCSc1ncnc2sccc12	2.8	x
CCN(CC)C(=O)n1nnc2ccccc21	2.8	-1.2
c1ccc(C(c2ccccc2)N2CCC2)cc1	3.3	x
Cc1ccc(NC(C)C(=O)N/N=C/c2cccnc2)cc1 (stereo not given)	8.9	0.16
O=C(C1=C(O)/C(=C/c2cccc(O)c2)CCC1)C(F)(F)F	1.3	-0.19
O=C(NCc1ccccc1)Nc1ccccc1	-2.6	x
Fc1cccc(F)c1CSc1nc2ccccc2[nH]1	1.8	0.5

At a glance, some entries already given.
SMILES	BasE inh	KSHV LANA nucl
CCOC(=O)c1cn(CC(=O)NN)nc1C(F)(F)F	1.5	x
COc1ccccc1NS(=O)(=O)c1ccc2oc(SCC(=O)NC(N)=O)nc2c1	2.3	x

Filtered by structure, those above containing a cyano group
SMILES	BasE inh	KSHV LANA nucl
Cc1ccc(S(=O)(=O)C(C#N)=C2N(C)c3ccccc3N2C)cc1	1.6	x
Cc1nc(-c2ccc(Cl)cc2)cc(C(F)(F)F)c1C#N	x	-0.24
N#Cc1ccccc1OCC(=O)NC1(C#N)CCCC1	0.8	x
CCNc1nc2[nH]c(=O)c3c(c2s1)OC(N)=C(C#N)C3c1ccc(C)cc1 (stereo not given)	-13	2.6

Remaining list, next part
SMILES	BasE inh	KSHV LANA nucl
Cc1cc(C)n(-c2ccc(C(=O)NC(C)c3ccc(S(N)(=O)=O)cc3)cc2)n1 (stereo not given)	-1.7	x
O=C(Cn1ccc(=O)[nH]c1=O)NC1CCCCCC1	1.1	x
CCOC(=O)c1oc2ccc(Br)cc2c1COC(=O)c1cccnc1Cl	-0.8	x
O=C(c1cccnc1)N1N=C(C(F)(F)F)CC1(O)c1cccnc1 (stereo not given)	3.4	-0.22
CCOc1ccc2c(c1)C(=O)c1cc(OCC)ccc1-2	1.0	x
O=C(O)c1cccnc1SC1CC(=O)N(C2CCCC2)C1=O (stereo not given)	0.6	-1.3
c1ccc(Cc2nc3ccc4[nH]snc4c3n2)cc1	1.2	x
CCC1CN(C(=O)NC2CCCC2)c2ccccc2O1 (stereo not given)	0.1	-0.057
CCC(C(=O)N1CCN(CC)CC1)c1ccccc1 (stereo not given)	1.4	0.47
COc1ccc(N2C(=O)CC(N(O)c3ccccc3)C2=O)cc1 (stereo not given)	3.0	-1.7
CC1=Nc2ncnn2C(c2ccccc2)/C1=N\O (stereo not given)	0.1	x
CC(C)c1ccc(NC(=S)NN2CCOCC2)cc1	-0.1	-0.004
O=C(O)CSCC(=O)Nc1ccccc1C(F)(F)F	-0.2	-0.41
Cc1nc(C(=O)N/N=C/c2[nH]ncc2Cl)cs1	-3.6	-0.41
CC(C)(C)OC(=O)N1CCCC(CN)C1 (stereo not given)	1.2	0.3
CCOc1ccc(N(CC)S(=O)(=O)N2CCCC(C(=O)O)C2)cc1 (stereo not given)	-1.2	-1.3
COc1ccc(C2=Nn3c(nc4sc5c(c4c3=O)CCCC5)SC2)cc1	-1.6	x
C=CCc1c(C)nc(SC)nc1Nc1ccc(C(=O)O)cc1	-3.1	-1
CC(C)(C)C1=C(C#N)C(c2ccc(Cl)cc2)CC(=O)N1 (stereo not given)	x	-0.26
CCC1(CC)Cc2ccccc2-c2nc(NCCCO)[nH]c(=O)c21	1.2	-1.1
COc1ccc(NC(=O)c2c(C)oc3ccc(O)c(CN4CCN(C)CC4)c23)cc1	1.0	-0.1
CN(CCC#N)C(=O)Cn1cnc2c(cnn2-c2ccc(F)cc2)c1=O	-1.0	x
CCC(Oc1ccccc1)C(=O)N1CCOCC1 (stereo not given)	-0.1	-0.6
O=C(CCN1CCOCC1)N1c2ccccc2Sc2ccc(Cl)cc21	-1.7	x
N/C(Cn1ccccc1=O)=N\O	1.2	x
COc1ccc2nc(NC(=O)[C@@H]3CCCN3C(=O)c3cccs3)sc2c1	1.3	x
COC(=O)N/N=C/c1cn(-c2ccccc2)nc1-c1ccc(OC)cc1	2.4	x
O=C(O)Cn1cc(/C=C2\C(=O)NC(=O)N(c3ccc4c(c3)OCO4)C2=O)c2ccccc21	4.0	0.55
O=C(CSc1cccc[n+]1[O-])NCC1CCCCC1	0.2	x
COc1ccc(C(=O)OCC(N)=O)c(OC)c1	2.6	x
CC(=O)Nc1nc(CSc2nnc(-c3cccc(S(=O)(=O)N4CCCCC4)c3)o2)cs1	-3.5	x
COC(=O)c1nc(NC2=NCCCCC2)n[nH]1	0.7	x
Cc1nc(Cc2nnc(SCC(=O)c3ccc(Cl)s3)o2)cs1	0.3	x
Nn1c(SCC(=O)NCc2ccc3c(c2)OCO3)nncc1=O	-0.6	0.56
N#CCOC(=O)c1cc(-c2ccc(C=C(C#N)C#N)o2)ccc1Cl	23	-1.7
COc1ccc(N=C2SC(C(=O)O)CC(=O)N2C)cc1 (stereo not given)	2.3	-1.6
CCCCn1c(NC(=O)c2ccc(Br)o2)c(S(=O)(=O)c2ccc(C)cc2)c2nc3ccccc3nc21	10	x
Cc1noc(/C=C/N(C)C)c1S(=O)(=O)NCCN1CCN(c2ccccc2F)CC1	0.5	-1.4
COCCCNc1oc(-c2ccccc2)nc1S(=O)(=O)c1ccccc1	2.6	0.67
N#Cc1c(NC(=O)C2c3ccccc3Oc3ccccc32)oc(-c2ccco2)c1-c1ccco1	-5.2	x

Single records, from the list above. Values in the order: BasE inh | KSHV LANA nucl
Shown for Cc1nn(-c2ccc(F)cc2)c(Cl)c1/C=N/NC(=O)C1CC1 → 0.8 | x
Shown for COc1ccc(N2C(=O)CC(N(O)c3ccccc3)C2=O)cc1 (stereo not given) → 3.0 | -1.7
Shown for OCCSc1ncnc2sccc12 → 2.8 | x
Shown for c1ccc(C(c2ccccc2)N2CCC2)cc1 → 3.3 | x
Shown for COC(=O)C1CNCCS1 (stereo not given) → -1.3 | x

The listing continues:
SMILES	BasE inh	KSHV LANA nucl
COc1ccc(CNC(C)C2CC2)cc1 (stereo not given)	-0.6	x
CN1CCC(=NNC(=O)CN(c2cccc(Br)c2)S(C)(=O)=O)CC1	3.2	0.1
CC(Sc1nnc(-c2cccs2)n1-c1ccccc1)C(=O)c1c(N)n(C)c(=O)n(C)c1=O (stereo not given)	-1.8	x
CCCCNC(=O)Nc1sccc1C#N	-2.8	x
O=C1N/C(=C/c2ccc(O)cc2)C(=O)N1Cc1ccc(Br)cc1	0.6	-0.69
Cc1ccc(Nc2nc(CN(C)CCCc3[nH]nc(N)c3C#N)cs2)cc1	-10.0	x
NC(=O)CN1CCN(Cc2cccc3ccccc23)CC1	-0.3	0.36
CC(Cc1cccs1)C(=O)O (stereo not given)	-1.5	0.027
O=C(/C=C/c1ccccc1)Oc1ccc2ccccc2c1	1.2	x
CCn1c2ccccc2c2cc(C=C(C#N)C#N)ccc21	33	-10
CC(=O)NC(=S)N1CCCc2ccccc21	-2.9	-0.079
O=C(Nc1ccccc1)N1c2ccccc2CCc2ccccc21	-6.3	x
CC(CO)(CO)NC(=S)Nc1ccc(F)c(Cl)c1	-2.8	x
CCC(=O)Nc1cccc(C(=O)Nc2cc(C)on2)c1	0.2	-0.49
CCn1c(CSc2nc3ccccc3s2)nnc1SCC(=O)c1ccc(O)c(O)c1	0.6	x
O=C(OCc1cncs1)c1ccccc1	x	2.2
CCC(Oc1ccccc1)C(=O)Nc1ccc(Cl)cn1 (stereo not given)	-1.1	-0.03
Cc1ccc(SCCn2cc(S(=O)(=O)N3CCCC3)ccc2=O)cc1	-2.0	x
N#Cc1ccccc1OCCCn1cnc2ccccc2c1=O	-1.9	1
COc1ccc(NC(=O)C2CCN(c3nc(C)nc4c3CCC4)CC2)cc1	0.2	0.64
O=C(O)CSc1nn(-c2ccccc2)c(=S)s1	2.3	x
COc1cc2nc(CN3CC(C)OC(C)C3)[nH]c(=O)c2cc1OC (stereo not given)	0.3	x
CCC(=O)NNc1ncnc2c1cnn2C	0.0	-1

Bioassay records as filed in PubChem BioAssay.
